Compound activity: PubChem BioAssay, Broad Institute
Vaccinia stage: blocks a specific stage of Vaccinia orthopoxvirus infection, primary screen, cell-based, single point | AID 1053133, 2014 | activity change (mCherry), % (concentration not given with the values) | 0.01% of 89,000 active | Vaccinia-infected cells, mCherry/Venus stage reporter fluorescence; hits give low values; some inactives read as strong as hits;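 active = mCherry past -33% and 40 or more points under the early reporter, replicates agreeing; inconclusive = past -33% without that gap or agreement; tested in A549 cells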;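 note: scaled between vehicle wells and reference inhibitor wells; 23 nL library stock went into each well; one replicate is shown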
Vaccinia stage Venus: second read-out of Vaccinia stage, no call of its own (marks repeat the call); activity change (Venus), %; measured here: Venus reporter, other viral stage;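 negative = less Venus signal; first of two replicates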
An asterisk follows results filed as active; ? = inconclusive; . = no result given. The list is partial; the hit share may differ from the screen's.

Second line of a record – Vaccinia stage | Vaccinia stage Venus
- C[C@@H]1CCCCO[C@H](CN(C)C(=O)C2CCCCC2)[C@@H](C)CN([C@@H](C)CO)C(=O)c2cc(NC(=O)Nc3ccc(C(F)(F)F)cc3)ccc2O1
→ ? | .
- C[C@@H]1CCCCO[C@@H](CN(C)CC2CCCCC2)[C@@H](C)CN([C@H](C)CO)C(=O)c2cc(NC(=O)Nc3cccc4ccccc34)ccc2O1
→ -8 | -14
- O=C(C[C@@H]1CC[C@@H]2[C@H](COC[C@H](O)CN2C(=O)c2ccccc2)O1)N1CCc2ccccc2C1
→ 0 | -1
- Cc1noc(C)c1NC(=O)Nc1ccc2c(c1)C(=O)N([C@H](C)CO)C[C@H](C)[C@H](CN(C)C(=O)Nc1cccc3ccccc13)O2
→ 4 | 1
- C[C@H](CO)N1C[C@H](C)[C@H](CN(C)Cc2ccccc2F)Oc2cc(C3=CCCCC3)ccc2S1(=O)=O
→ ? | .
- COc1cccc(CNC(=O)C[C@@H]2CC[C@@H](NS(=O)(=O)c3ccccc3OC)[C@@H](CO)O2)c1
→ 10 | 10
- C[C@H](CO)N1C[C@H](C)[C@@H](CN(C)Cc2ccncc2)Oc2c(NC(=O)Nc3ccc4c(c3)OCO4)cccc2C1=O
→ 9 | 7
- Cc1noc(C)c1S(=O)(=O)N(C)C[C@H]1Oc2ccc(NC(=O)CCN3CCOCC3)cc2CC(=O)N([C@H](C)CO)C[C@H]1C
→ 6 | 5
- C[C@H](CO)N1C[C@H](C)[C@@H](CN(C)C)Oc2cc(C#CCC3CCCC3)ccc2S1(=O)=O
→ ? | .
- CO[C@@H]1CN(C)C(=O)c2cc(NC(=O)c3cnccn3)ccc2OC[C@H](C)N(C(C)=O)C[C@@H]1C
→ 2 | -1
- C[C@@H]1CN([C@H](C)CO)C(=O)CCCn2cc(nn2)CO[C@H]1CN(C)S(=O)(=O)c1ccc(C#N)cc1
→ 25 | 16
- Cc1ccc(S(=O)(=O)N(C)C[C@@H]2OCCCC[C@H](C)Oc3ccc(NC(=O)c4ccccc4)cc3C(=O)N([C@H](C)CO)C[C@@H]2C)cc1
→ -26 | -10
- COC(=O)[C@@H]1[C@@H](CO)[C@@H]2Cn3c(ccc(C4=CCCCC4)c3=O)[C@H]1N2CC1CCCCC1
→ ? | .
- C[C@H](CO)N1C[C@H](C)[C@@H](CN(C)C(=O)Nc2cccc3ccccc23)Oc2c(NC(=O)Nc3ccc4c(c3)OCO4)cccc2C1=O
→ 3 | 10
- COc1ccc(-c2ccc([C@@H]3[C@H](C#N)N(C(=O)c4cccnc4)[C@H]3CO)cc2)cc1
→ -1 | 3
- C[C@H]1CCCCO[C@H](CN(C)C(=O)c2ccncc2)[C@@H](C)CN([C@@H](C)CO)C(=O)c2cc(NC(=O)Cc3ccccc3)ccc2O1
→ 29 | 9
- O=C(C[C@H]1C=C[C@@H](NC(=O)c2cccc(F)c2)[C@H](CO)O1)NCc1ccc(Oc2ccccc2)cc1
→ -5 | 0
- COc1ccc(NC(=O)N(C)C[C@H]2Oc3ncc(C#CC(C)C)cc3C(=O)N([C@@H](C)CO)C[C@H]2C)cc1
→ -5 | -3
- COCCNC(=O)C[C@@H]1CC[C@@H]2[C@@H](COc3ccc(NC(=O)Nc4cccc(F)c4)cc3C(=O)N2C)O1
→ 22 | 12
- C[C@@H]1CN([C@H](C)CO)S(=O)(=O)c2ccc(C#CCN(C)C)cc2O[C@@H]1CN(C)C(=O)c1ccccc1F
→ 8 | 0

Whole records from above. Order of screens: Vaccinia stage | Vaccinia stage Venus
C[C@H](CO)N1C[C@H](C)[C@@H](CN(C)C)Oc2cc(C#CCC3CCCC3)ccc2S1(=O)=O is listed as ? | .
C[C@H]1CCCCO[C@H](CN(C)C(=O)c2ccncc2)[C@@H](C)CN([C@@H](C)CO)C(=O)c2cc(NC(=O)Cc3ccccc3)ccc2O1 is listed as 29 | 9
COc1ccc(-c2ccc([C@@H]3[C@H](C#N)N(C(=O)c4cccnc4)[C@H]3CO)cc2)cc1 is listed as -1 | 3
C[C@H](CO)N1C[C@H](C)[C@@H](CN(C)C(=O)Nc2cccc3ccccc23)Oc2c(NC(=O)Nc3ccc4c(c3)OCO4)cccc2C1=O is listed as 3 | 10
C[C@@H]1CN([C@H](C)CO)C(=O)CCCn2cc(nn2)CO[C@H]1CN(C)S(=O)(=O)c1ccc(C#N)cc1 is listed as 25 | 16

(listing goes on)
Second line of a record – Vaccinia stage | Vaccinia stage Venus
- COc1ccc2c3c(n(C)c2c1)[C@H](CO)N(C(C)=O)CC31CN(Cc2ccccc2OC)C1
→ -13 | -17
- CC(=O)N(C)C[C@@H]1Oc2cc(C#CC3(O)CCCC3)ccc2S(=O)(=O)N([C@@H](C)CO)C[C@H]1C
→ 9 | -1
- C[C@@H]1CCCCO[C@H](CN(C)Cc2ccncc2)[C@@H](C)CN([C@H](C)CO)C(=O)c2cc(NC(=O)CCCN(C)C)ccc2O1
→ 30 | 14
- CO[C@@H]1CN(C)C(=O)c2cc(NC(=O)c3ccc(F)cc3)ccc2OC[C@H](C)N(C(C)=O)C[C@@H]1C
→ -1 | -9
- N#C[C@@H]1[C@@H](c2ccc(-c3ccccc3F)cc2)[C@@H](CO)N1C(=O)C1CCC1
→ -29 | -19
- COc1ccc(NC(=O)Nc2ccc3c(c2)C(=O)N([C@H](C)CO)C[C@H](C)[C@H](CN(C)Cc2ccc4c(c2)OCO4)O3)cc1
→ -7 | 5
- C[C@@H]1CCCCO[C@@H](CN(C)C(=O)Nc2ccc3c(c2)OCO3)[C@H](C)CN([C@@H](C)CO)C(=O)c2cc(NS(C)(=O)=O)ccc2O1
→ 17 | 5
- COc1ccc(S(=O)(=O)N(C)C[C@@H]2Oc3ccc(NS(=O)(=O)c4ccc(F)cc4)cc3C(=O)N([C@@H](C)CO)C[C@@H]2C)cc1
→ 0 | 7
- O=C(c1ccc(F)cc1)N1CCCCN2[C@H](CO)[C@H](c3ccc(-c4ccccc4)cc3)[C@H]2C1
→ ? | .
- O=C(NC1CCC1)[C@H]1[C@H](CO)[C@H]2Cn3c(ccc(/C=C/c4ccccc4)c3=O)[C@H]2N1Cc1ccncc1
→ -14 | 5
- C[C@H]1CN([C@@H](C)CO)C(=O)c2cc(NC(=O)CCN3CCOCC3)ccc2O[C@@H]1CN(C)C(=O)Nc1ccc(C(F)(F)F)cc1
→ 10 | 2
- C[C@H]1CN([C@@H](C)CO)S(=O)(=O)c2ccc(Br)cc2O[C@H]1CN(C)Cc1ccc(F)cc1
→ -20 | -15
- COc1ccc(-c2ccc([C@H]3[C@@H](C#N)N(C(=O)C4CCC4)[C@H]3CO)cc2)cc1
→ ? | .
- CN(C)CC#Cc1ccc([C@H]2[C@@H](CO)N(C(=O)C3CCCC3)[C@H]2C#N)cc1
→ 18 | 12
- COc1cccc(-c2cnc3c(c2)C(=O)N([C@@H](C)CO)C[C@H](C)[C@H](CN(C)Cc2ccc(F)cc2)O3)c1
→ 6 | -4
- C[C@H]1CCCCO[C@H](CN(C)C(=O)Cc2ccccc2)[C@@H](C)CN([C@@H](C)CO)C(=O)c2cc(NC(=O)CCCN(C)C)ccc2O1
→ 9 | 0
- CN(C)CCCNC(=O)C[C@H]1CC[C@H]2[C@@H](COc3ccc(NC(=O)c4ccccc4F)cc3C(=O)N2C)O1
→ 18 | 9
- CO[C@@H]1CN(C)C(=O)c2cc(NS(=O)(=O)c3ccccc3F)ccc2OC[C@H](C)NC[C@@H]1C
→ 10 | 9
- C[C@H](CO)N1C[C@H](C)[C@@H](CN(C)S(=O)(=O)c2ccccc2)OCCCC[C@H](C)Oc2ccc(NC(=O)Nc3ccc(F)cc3)cc2C1=O
→ 12 | 5
- O=C(C[C@@H]1CC[C@H](NC(=O)CC2CC2)[C@H](CO)O1)NCC(F)(F)F
→ 6 | 3
- C[C@@H]1CCCCO[C@H](CN(C)Cc2ccccc2)[C@H](C)CN([C@H](C)CO)C(=O)c2cc(NC(=O)c3ccncc3)ccc2O1
→ -2 | -13
- CCC(=O)NC[C@@H]1[C@@H](c2ccc(C3=CCCCC3)cc2)[C@@H](CO)N1CC1CC1
→ -24 | -11
- CC(=O)NC[C@@H]1[C@H](c2ccccc2)[C@H](CO)N1C(=O)Cc1cccnc1
→ 10 | 7
- C[C@@H]1CN([C@H](C)CO)C(=O)c2cc(NC(=O)Cc3ccccc3)ccc2O[C@H]1CN(C)Cc1ccc(Oc2ccccc2)cc1
→ 13 | 1
- Cc1cccc(S(=O)(=O)N2CC[C@@H]3[C@@H](CO)Nc4ccc(C#Cc5ccccc5F)cc4[C@@H]32)c1
→ -1 | -2
- O=C(C[C@@H]1C=C[C@H](NC(=O)NC2CCCC2)[C@H](CO)O1)NCc1ccc(F)cc1
→ -2 | -4
- C[C@H](CO)N1C[C@H](C)[C@H](CN(C)Cc2ccc(Cl)c(Cl)c2)Oc2c(NC(=O)C3CC3)cccc2C1=O
→ -11 | -4
- COCC#Cc1ccc2c(c1)O[C@@H](CN(C)Cc1ccncc1)[C@@H](C)CN([C@H](C)CO)S2(=O)=O
→ 6 | 3
- C[C@H]1CN([C@@H](C)CO)C(=O)c2cc(NC(=O)Cc3cn(C)c4ccccc34)ccc2O[C@H]1CN(C)S(=O)(=O)c1ccc(F)cc1
→ -7 | -10
- COc1cccc(S(=O)(=O)N(C)C[C@@H]2Oc3ncc(C#CC(C)(C)O)cc3C(=O)N([C@H](C)CO)C[C@@H]2C)c1
→ -7 | -1
- O=C(NC1CCCC1)N1CC(=O)N2[C@H](CO)[C@H](c3ccc(C4=CCCCC4)cc3)[C@@H]2C1
→ -18 | -13
- CN(C)CC(=O)N[C@@H]1C=C[C@H](CC(=O)NCCN2CCCCC2)O[C@H]1CO
→ -2 | 5
- Cc1ccc(S(=O)(=O)N(C)C[C@@H]2Oc3ccc(NC(=O)C4CCCCC4)cc3CC(=O)N([C@@H](C)CO)C[C@@H]2C)cc1
→ 1 | 7
- O=C(Nc1cccc(F)c1)N1CCCCN2[C@H](CO)[C@H](c3ccc(C#CC4CC4)cc3)[C@@H]2C1
→ ? | .
- CCC(=O)N[C@H]1CC[C@@H](CC(=O)OC)O[C@H]1CO
→ 3 | 6
- CCC(=O)N1CC[C@@H]2[C@H]1c1cc(C#Cc3ccc(OC)cc3)ccc1N[C@@H]2CO
→ 8 | -6
- O=S(=O)(c1ccccc1)N1CC2(C1)[C@H](c1ccccc1)[C@H](CO)N2CC1CC1
→ 21 | 17
- C[C@@H]1CN([C@@H](C)CO)C(=O)c2cc(NC(=O)Nc3cccc4ccccc34)ccc2O[C@@H](C)CCCCO[C@H]1CN(C)C
→ -16 | -8
- O=C(c1cccc(F)c1)N1CCCCN2[C@H](CO)[C@@H](c3ccc(-c4cccnc4)cc3)[C@@H]2C1
→ 25 | 5
- C[C@@H]1CN([C@H](C)CO)C(=O)c2cc(NC(=O)Nc3cccc4ccccc34)ccc2O[C@@H]1CN(C)C(=O)Nc1ccc(C(F)(F)F)cc1
→ 10 | 9
- COc1ccc(-c2ccc([C@H]3[C@H](CO)N4C(=O)CN(C(=O)NC(C)C)C[C@@H]34)cc2)cc1
→ 9 | 8
- CC1C=NC(S(=O)(=O)N2CC[C@@H]3[C@H](CO)N(C)c4ccc(-c5ccccc5)cc4[C@@H]32)=N1 (stereo partly drawn)
→ 14 | 3
- COc1ccc2c3c([nH]c2c1)[C@H](CO)N(C(=O)C1CCC1)CC31CCN(C(=O)NC(C)C)CC1
→ 18 | 5
- C[C@@H]1CN([C@@H](C)CO)C(=O)c2cc(N(C)C)ccc2O[C@@H](C)CCCCO[C@H]1CN(C)C(=O)Nc1cccc2ccccc12
→ -17 | -11
- COc1ccc(S(=O)(=O)Nc2ccc3c(c2)[C@@H]2C[C@@H](CC(=O)NCC4CC4)O[C@@H](CO)[C@@H]2O3)cc1
→ -11 | -3
- C[C@@H]1CCCCO[C@@H](CN(C)Cc2ccc(C(=O)Nc3ccccc3N)cc2)[C@@H](C)CN([C@H](C)CO)C(=O)c2cc(NS(C)(=O)=O)ccc2O1
→ 3 | 15
- C[C@H]1CN([C@@H](C)CO)C(=O)c2cc(NC(=O)Cn3cnnn3)ccc2O[C@@H]1CN(C)CC1CCCCC1
→ 15 | 5
- COc1ccc(S(=O)(=O)Nc2cccc3c2O[C@@H](CN(C)C(=O)NC(C)C)[C@@H](C)CN([C@H](C)CO)C3=O)cc1
→ 7 | 4
- C[C@H](O)C#Cc1cnc2c(c1)C(=O)N([C@@H](C)CO)C[C@@H](C)[C@H](CN(C)C(=O)Cc1ccncc1)O2
→ 10 | 14
- Cc1ccc(-c2ccc([C@H]3[C@@H](CO)N4CCCCN(C(=O)Nc5ccccc5)C[C@@H]34)cc2)cc1
→ ? | .
- CCC(=O)Nc1ccc2c(c1)C(=O)N(C)[C@@H]1CC[C@@H](CC(=O)NCCN3CCCCC3)O[C@@H]1CO2
→ -1 | -2
- C[C@@H]1CCCCO[C@@H](CN(C)C(=O)Nc2ccc3c(c2)OCO3)[C@@H](C)CN([C@@H](C)CO)C(=O)c2cc(NC(=O)CCCN(C)C)ccc2O1
→ 17 | 10
- COCC(=O)N(C)C[C@@H]1Oc2cc(C#CC3CC3)ccc2S(=O)(=O)N([C@@H](C)CO)C[C@@H]1C
→ -1 | -2
- C[C@H]1CCCCO[C@@H](CN(C)C)[C@@H](C)CN([C@@H](C)CO)C(=O)c2cc(NS(=O)(=O)c3ccc(Cl)cc3)ccc2O1
→ -14 | -2
- CCC(=O)N1[C@@H](CO)[C@@H](c2ccccc2)[C@@H]1CN(CC)C(=O)c1ccccc1
→ 1 | 10
- COc1cccc(CNC(=O)c2cc3c(c(-c4cccc(-c5ccncc5)c4)n2)[C@H](CCO)N([S@@](=O)C(C)(C)C)C3)c1
→ -29 | -15
- O=C(C[C@H]1C[C@H]2c3cc(NC(=O)c4ccc5c(c4)OCO5)ccc3O[C@H]2[C@@H](CO)O1)NCc1cc(F)ccc1F
→ -16 | -1
- C[C@H]1CN([C@@H](C)CO)C(=O)c2cccc(NC(=O)Nc3ccc(F)cc3)c2O[C@H]1CN(C)Cc1ccc(Oc2ccccc2)cc1
→ -12 | -14
